# Assay outcomes (PubChem BioAssay)
# TRPML1 inh: human mucolipin-1 channel inhibition; Q9GZU1; TRPML1-inducible cells, Ca2+ dye fluorescence, FDSS; stronger effect = lower value; inhibition of EC80 agonist-evoked calcium signal; activity change, negative = inhibition, % (no concentration beside the values); 0.02% of 390,000 active; AID 624415; in the data active means activity change below about -50%; inconclusive means about -30% to -50%; inactive means above about -30%;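 further: stimulus is agonist 54-4 at its EC80 concentration; on the % scale 0 is the no-effect control and ±100 the full control effect; compound concentration not given in the record; the text of the record puts the active cut at -80%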
# Target sequence (Q9GZU1 whole entry, looked up): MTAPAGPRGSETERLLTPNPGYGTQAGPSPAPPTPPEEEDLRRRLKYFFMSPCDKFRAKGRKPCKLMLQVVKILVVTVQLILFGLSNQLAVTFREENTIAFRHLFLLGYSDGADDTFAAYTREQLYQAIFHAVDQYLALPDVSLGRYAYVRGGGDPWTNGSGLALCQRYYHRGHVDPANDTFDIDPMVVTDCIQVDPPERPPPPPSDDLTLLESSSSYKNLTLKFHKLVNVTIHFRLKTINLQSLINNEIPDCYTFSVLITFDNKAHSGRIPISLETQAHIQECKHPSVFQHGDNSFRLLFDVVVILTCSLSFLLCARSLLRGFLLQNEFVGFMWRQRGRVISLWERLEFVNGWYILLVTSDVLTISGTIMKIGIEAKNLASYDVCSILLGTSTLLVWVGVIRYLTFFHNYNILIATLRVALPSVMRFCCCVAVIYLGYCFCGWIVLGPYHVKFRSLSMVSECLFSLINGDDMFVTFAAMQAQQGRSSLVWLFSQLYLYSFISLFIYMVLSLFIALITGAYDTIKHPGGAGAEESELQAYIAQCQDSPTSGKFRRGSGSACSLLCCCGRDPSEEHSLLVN
#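 Calcium fluorescence in TRPML1-DL cells induced overnight with Tet: a 110 s read after compound pin addition, then a 110 s antagonist read after challenge with 54-4 at 4 uM final (EC80).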
# TRPML1 agonist: human mucolipin-1 channel agonism; TRPML1-expressing cells, Ca2+ dye fluorescence, FDSS; host cell line not named in the record; reference of the full effect not given here; Q9GZU1; 0.12% of 410,000 active; activation, % (test concentration not listed); in the data active = activation above about 50%; inconclusive = about 30% to 50%; inactive = below about 30%; further: 0% is about no effect; the text of the record puts the active cut at 80%
#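 Kinetic FDSS Ca2+ read in Tet-induced TRPML1-DL cells (ABD Ca8 dye plus quencher, 45-90 min RT loading): baseline, then compound, then 110 s agonist window; EC80 agonist 54-4 at 4uM final added afterwards for a 110 s antagonist window.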
# The depositor's hits bear a star; ? = inconclusive.
structure,TRPML1 inh,TRPML1 agonist
CCC(CO)NC(=O)C(=O)Nc1c2c(nn1-c1ccc(F)cc1)CSC2 (stereo not given),11,0.2
O=C(NCC(c1ccc2c(c1)OCO2)N1CCN(c2ccccc2)CC1)C(=O)Nc1ccccc1 (stereo not given),22,-0.7
COc1cc(C)ccc1OCCSc1nc2ccc(NC(C)=O)cc2s1,17,2.3
COc1ccc(Cn2ccc3nc(C)c(C(=O)Nc4ccc(OC)cc4OC)cc3c2=O)cc1,-8,0.7
CCOc1ccc(NC(=O)C2CCN(c3nnc(-n4c(C)ccc4C)s3)CC2)cc1,-19,0.1
CCC(=O)N1c2ccccc2CC1C(=O)NCc1ccc(OC(C)C)cc1 (stereo not given),-2,0.6
COc1ccc(OC)c(CCNC(=O)Cn2nc(C)n3c(cc4sccc43)c2=O)c1,3,-0.4
Cc1ccc(-c2nc3nc(C)cc(N4CCN(c5cc(Cl)ccc5C)CC4)n3n2)cc1,3,0.6
COc1ccccc1NC(=O)Cn1c(=O)n(Cc2nc(-c3ccccc3)no2)c(=O)c2ccccc21,1,-0.8
CCOC(=O)CC(NC(=O)Cn1nnc(-c2ccc(C(F)(F)F)cc2)n1)c1ccc(C)cc1 (stereo not given),14,1.3

# In another format: entries from further up.
COc1ccc(OC)c(CCNC(=O)Cn2nc(C)n3c(cc4sccc43)c2=O)c1
  TRPML1 inh: 3
  TRPML1 agonist: -0.4

Cc1ccc(-c2nc3nc(C)cc(N4CCN(c5cc(Cl)ccc5C)CC4)n3n2)cc1
  TRPML1 inh: 3
  TRPML1 agonist: 0.6

COc1ccccc1NC(=O)Cn1c(=O)n(Cc2nc(-c3ccccc3)no2)c(=O)c2ccccc21
  TRPML1 inh: 1
  TRPML1 agonist: -0.8

CCOC(=O)CC(NC(=O)Cn1nnc(-c2ccc(C(F)(F)F)cc2)n1)c1ccc(C)cc1 (stereo not given)
  TRPML1 inh: 14
  TRPML1 agonist: 1.3

# Following part:
structure,TRPML1 inh,TRPML1 agonist
Cc1ccc(NC(=O)CN2C(=O)CSc3ccc(S(=O)(=O)N(C)C)cc32)c(C)c1,-16,-1.3
Cc1ccc(O)c(NC(=O)c2ccc(Br)c(S(=O)(=O)N3CCCCC3)c2)c1,85,1.0
COc1ccc(-c2nc(N3CCN(S(=O)(=O)c4ccccc4)CC3)c3ccccc3n2)cc1,17,0.3
Cc1cccc(C)c1-n1ncc(C(=O)NCCCN2CCC(C)CC2)c1C1CCN(C(=O)OC(C)(C)C)CC1,2,6.9
CCC(Sc1ncccc1C(=O)Oc1ccccc1Cl)C(=O)Nc1ccccc1OC (stereo not given),-11,1.5
Cc1oc2ccc(O)c(CN3CCOCC3)c2c1C(=O)Nc1ccccc1,1,-0.7
CCc1ccc(CNC(=O)C(CC)n2ccc3cc(S(=O)(=O)N4CCCCC4)ccc32)cc1 (stereo not given),3,-0.2
CC(=O)c1[nH]c(C)c(C(=O)NCCc2ccc(C)cc2)c1C,10,2.4
Cc1ccc(N2CC(NC(=O)c3cccs3)CC2=O)cc1C (stereo not given),-13,-0.9
CCCCN(CCCNC(=O)c1cc(Nc2ccc(OC)c(OC)c2)nc2ccccc12)Cc1ccccc1,-6,3.0
Cc1cccc(OCC(=O)Nc2ccc(C(=O)OCc3cc(=O)n4nc(C5CC5)sc4n3)cc2)c1,4,0.2
CCCCOc1ccc(-c2nn(-c3ccccc3)cc2C2NC(=O)NC(C)=C2C(=O)OCC)cc1 (stereo not given),19,1.6
O=C(CSc1n[nH]c(-c2ccc(F)cc2)n1)NCCc1ccccc1,2,-0.4
CC(C)OCCCn1c(SCc2ccccc2Cl)nc2c(sc3ccccc32)c1=O,0,-0.5
CCN(CC)C(=O)Cn1c(=O)n(-c2ccc(Cl)cc2)c(=O)c2c3c(sc21)CCCCC3,-12,-0.1
COc1ccc(NC(=O)Cc2coc3cc(C)cc(C)c23)c(OC)c1,-8,2.2
Cn1c(=O)c2c(nc(NCc3ccccc3)n2Cc2ccccc2)n(C)c1=O,11,0.2
CCCC(=O)Nc1ccccc1OCc1cc(=O)n2cc(C)ccc2n1,-22,0.0
CCOc1ccc(-n2c(=O)c3c4c(sc3n(Cc3cccc(C)c3)c2=O)CCCC4)cc1,6,-0.1
Cc1ccc(NC(=O)Nc2c[nH]c(=O)[nH]c2=O)c(Cl)c1,26,3.3

# Complete entries, quoted from the list.
# Results for `Cc1ccc(NC(=O)Nc2c[nH]c(=O)[nH]c2=O)c(Cl)c1` : TRPML1 inh: 26; TRPML1 agonist: 3.3
# Results for `CCCCN(CCCNC(=O)c1cc(Nc2ccc(OC)c(OC)c2)nc2ccccc12)Cc1ccccc1` : TRPML1 inh: -6; TRPML1 agonist: 3.0
# Results for `CCC(Sc1ncccc1C(=O)Oc1ccccc1Cl)C(=O)Nc1ccccc1OC` (stereo not given) : TRPML1 inh: -11; TRPML1 agonist: 1.5

# Next compounds follow:
structure,TRPML1 inh,TRPML1 agonist
Cc1sc2ncn(CC(=O)N3CCN(c4ccccc4)CC3)c(=O)c2c1S(=O)(=O)N1CCN(c2ncccn2)CC1,-11,-1.0
COCCNC(=O)CN1C(=O)COc2ccc(S(=O)(=O)N3CCCC3)cc21,18,0.7
COc1ccccc1CNC(=O)c1ccc(-c2nc(CS(=O)c3ccccc3)c(C)o2)cc1 (stereo not given),-17,-0.3
COc1ccc(CCNC(=O)c2cc(-c3ccc(C)cc3)nc3n[nH]c(-c4ccc(F)cc4)c23)cc1OC,?,-0.3
O=C(Nc1nnc(S(=O)(=O)N2CCCC2)s1)c1ccc(F)cc1,-14,1.1
COc1cn(CC(=O)Nc2ccc(C)cc2C)c(CN2CCCCC2)cc1=O,-30,1.9
CC(C)CN1CCC(=O)N(C(CSc2ccc(Br)cc2)c2ccccc2)CC1 (stereo not given),4,0.8
COc1ccc(NC(=O)c2cccc3c(=O)c4c([nH]c23)CCCC4)cc1,13,-0.4
Cc1ccc(CN2C(=O)SC(Nc3ccc(Cl)cc3)C2=O)cc1 (stereo not given),-5,1.2
COc1ccccc1C(=O)Nc1ccccc1C(=O)OCc1cc(=O)n2c(C)csc2n1,5,1.0

# 2 entries drawn at random from those above, as already listed:
structure,TRPML1 inh,TRPML1 agonist
O=C(Nc1nnc(S(=O)(=O)N2CCCC2)s1)c1ccc(F)cc1,-14,1.1
CCc1ccc(CNC(=O)C(CC)n2ccc3cc(S(=O)(=O)N4CCCCC4)ccc32)cc1 (stereo not given),3,-0.2

# Remaining list, next part.
canonical_smiles	TRPML1 inh	TRPML1 agonist
Cn1c(-c2ccc(S(=O)(=O)N3CCCC3)cc2)csc1=Nc1ccc(Cl)c(Cl)c1	0	-0.4
Cc1ccc(C)c(N2CCN(C(=O)c3cnc4c(-c5ccccc5)c(C)nn4c3C)CC2)c1	0	1.5
COc1cc(-c2nc3n(n2)C(c2ccc(F)cc2)C(C(N)=O)=C(C)N3)cc(OC)c1OC (stereo not given)	-11	-0.2
COc1ccc(NC(=O)Nc2cn(CC(C)C)c(=O)c3ccccc23)c(OC)c1	8	1.9
COc1ccc(Cn2c(=O)c3oc4ccccc4c3n(Cc3cccc(C(F)(F)F)c3)c2=O)cc1	63	2.5
Cc1ccc2oc(=O)n(CCNC(=O)Nc3ccc(C)c(F)c3)c2c1	-5	1.3
COc1ccc(-c2ccc(NS(=O)(=O)c3ccc(C(C)=O)cc3)cc2)nn1	-14	-0.2
CCOc1ccc(-c2nonc2NC(=O)c2oc3ccc(Cl)cc3c2C)cc1	-13	2.1
COc1ccc(NC(=O)CSc2nc(-c3cccs3)cc(C(F)(F)F)n2)c(OC)c1	-2	0.3
CCCCn1c(C(C)NC(=O)c2ccccc2)nc2ccccc21 (stereo not given)	-14	1.8
COc1ccc(OC)c(CCNC(=O)c2cc3c(-c4ccccc4F)nn(C)c3s2)c1	0	0.4
CCc1ccc(S(=O)(=O)c2nnn3c2nc(N2CCOCC2)c2sccc23)cc1	-9	-0.4
CCOC(=O)c1cccc(NC(=O)CC2C(=O)N(c3ccc(Cl)cc3)C(=O)N2C2CCCC2)c1 (stereo not given)	-13	2.6
COc1ccc(OCC(=O)Nc2ccc(C(=O)OCc3cc(=O)n4nc(C)sc4n3)cc2)cc1	-11	1.2
COc1ccc(C2C(=O)N(C3CCC(C)CC3)CC(=O)N2Cc2ccccc2Cl)cc1OC (stereo not given)	-5	1.1
CCOCCOC(=O)c1ccc2c(c1)N(Cc1ccccc1C#N)C(=O)c1ccccc1S2(=O)=O	2	-0.4
Cc1ccc(C)c(NC(=O)Cn2cc(C(=O)C3CCCCC3)c3ccccc32)c1	-1	0.4
CCOC(=O)CSc1nc2ccc(NC(=O)c3ccc(Cl)cc3)cc2s1	19	1.8
CCN(CC)c1ccc(NC(=O)C2CCCN(S(=O)(=O)c3ccc4c(c3)oc(=O)n4C)C2)c(C)c1 (stereo not given)	13	-0.9
Cc1ccc(CNC(=O)c2ccc3c(c2)CCN3S(=O)(=O)c2ccccc2)cc1	-1	-0.5
CCCc1nc2ccccc2n2c(-c3ccc(C)cc3)c3c(=O)n(C)c(=O)n(C)c3c12	-6	-1.2
CCOC(=O)c1c(NC(=O)c2ccc(F)cc2)sc2c1CCC(CC)C2 (stereo not given)	2	0.7
CCOc1ccc2nc(N3CCCC(C(=O)Nc4ccc(Br)c(C)c4)C3)sc2c1 (stereo not given)	12	0.0
CCCC/C=C/[C@H](C)[C@@](C)(COC(=O)c1ccc(Br)cc1)Cc1ccccc1	-2	0.2
Cc1ccc(/C=C/c2onc(C)c2S(=O)(=O)N2CCC(C(=O)N3CCOc4ccccc43)CC2)cc1	15	0.5
CCC(Sc1nc2nccnc2c(=O)n1Cc1ccccc1Cl)C(=O)NC1CCCCC1 (stereo not given)	12	0.8
Cc1cccc(OCC(=O)Nc2cccc(C(=O)OCc3cc(=O)n4c(C)csc4n3)c2)c1	16	2.7
Cc1cc(Br)ccc1NC(=O)Cn1cc(S(=O)(=O)N2CCN(c3ccccc3F)CC2)c2ccccc2c1=O	-6	-0.6
CN(C(=O)CSc1nnc(NC(=O)Nc2ccccc2)s1)c1ccccc1	-17	1.7
CCc1ccc(NCc2cccn2-c2nnc(N3CCCCCC3)s2)cc1	66	2.4
CCOC(=O)c1ccc(NC(=O)C2CCCN(c3ccc(Sc4ccc(C)cc4)nn3)C2)cc1 (stereo not given)	-29	1.9
Cc1ccc(CNC(=O)c2cc(NS(=O)(=O)c3ccc(C)cc3)ccn2)cc1	26	-1.3
Cc1cccc(C)c1NC(=O)c1cc(S(=O)(=O)N2CCc3ccccc3C2)ccc1F	-10	1.5
COc1cccc(NC(=O)C2=C(C)C(=O)OC23CCN(C(C)=O)CC3)c1	4	-0.3
COc1cc(NS(=O)(=O)c2ccc3oc(=O)c4ncn(C)c4c3c2)cc(OC)c1	47	0.3
Cc1ccc(NC(=O)CCC(=O)N2Cc3ccccc3Oc3ncccc32)c(C)c1	-6	0.4
CCN(CC)/[N+]([O-])=N/Oc1ccc([N+](=O)[O-])cc1[N+](=O)[O-]	20	1.0
CCc1ccc(-n2nc(C)c3c(C)cc(=O)n(CC(=O)NCc4ccc(C)cc4)c32)cc1	21	-0.1
COc1cc(Cl)c(NC(=O)CCS(=O)(=O)c2cc3c(cc2Cl)NC(=O)CO3)c(OC)c1	-3	4.7
Oc1ccccc1-c1nc(-c2cccs2)c(-c2cccs2)[nH]1	5	1.0
COc1ccc(CCn2c3c(c(=O)[nH]c2=O)C(NC(=O)c2ccc(C(C)(C)C)cc2)(C(F)(F)F)C(=O)N3)cc1OC (stereo not given)	-3	0.8
Cc1ccc(-c2noc(-c3nnn(-c4ccc(Br)cc4F)c3C)n2)cc1	15	-0.6
COc1ccc(S(=O)(=O)N2CCN(c3ccc(Cl)c(Cl)c3)CC2)c2ccccc12	6	1.3
CCOc1ccc(NC(=O)CSc2oc(-c3ccco3)nc2S(=O)(=O)c2ccccc2)cc1	17	-0.7
Cc1ccc(NC(=O)C2CCN(c3nc4ccccc4[nH]3)CC2)c(C)c1	?	1.0
CCCc1nn2c(=O)cc(COC(=O)c3ccccc3NC(=O)c3ccc(Cl)cc3)nc2s1	-3	0.4
O=C(Cn1c(=O)n(Cc2cccs2)c(=O)c2cccnc21)Nc1ccc(F)cc1	-19	-0.7
Cc1oc(-c2ccc(C(=O)Nc3ccc(F)cc3)cc2)nc1COc1ccccc1	5	0.1
CCCOc1ccc(C2C(=O)N(C3CCCCCC3)CC(=O)N2Cc2ccccc2OC)cc1OC (stereo not given)	-3	0.7
CCc1ccc(S(=O)(=O)Nc2cccc(-c3ccc(OC)nn3)c2)s1	0	1.1
CCCOC(=O)c1c(C)oc2c1cc(NS(=O)(=O)c1ccc(OCC)cc1)c1ccccc12	-24	?
Cc1ccc(Cn2c(C)c3cnn(CC(=O)N4CCN(c5ccc(F)cc5)CC4)c(=O)c3c2C)cc1	2	-0.6
CCOc1ccc(NC(=O)c2cc(C)nc3c2c(C)nn3-c2ccc(C)cc2)cc1	-6	-0.9
CCN(CC)S(=O)(=O)c1ccc2c(c1)N(CC(=O)Nc1cccc(C(C)=O)c1)C(=O)CO2	-8	0.0
COc1ccc(OC)c(CNC(=O)C2COc3ccccc3C2)c1 (stereo not given)	9	-1.1
COc1ccc(C(=O)c2c(N)c(-c3nc(-c4ccc5c(c4)OCO5)cs3)c3ccccn23)cc1	?	1.6

# These rows are one share of the data; rates above refer to the full screens.
